# Source: PubChem (National Center for Advancing Translational Sciences (NCATS))
# D2 PAM: human D2 receptor positive allosteric modulation; P14416; DiscoveRx D2 beta-arrestin cells, luminescence, 90 min; 100% = 57 uM dopamine signal; potentiation, % (test concentration not listed); actives 0.23% (n = 360,000); active = potentiation of 50% or more; inconclusive = 30% to 50%; inactive = 30% or less;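 note: compound concentration not given in the record; tested on top of an EC20 dose of dopamine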
# Target sequence (P14416 whole entry, looked up): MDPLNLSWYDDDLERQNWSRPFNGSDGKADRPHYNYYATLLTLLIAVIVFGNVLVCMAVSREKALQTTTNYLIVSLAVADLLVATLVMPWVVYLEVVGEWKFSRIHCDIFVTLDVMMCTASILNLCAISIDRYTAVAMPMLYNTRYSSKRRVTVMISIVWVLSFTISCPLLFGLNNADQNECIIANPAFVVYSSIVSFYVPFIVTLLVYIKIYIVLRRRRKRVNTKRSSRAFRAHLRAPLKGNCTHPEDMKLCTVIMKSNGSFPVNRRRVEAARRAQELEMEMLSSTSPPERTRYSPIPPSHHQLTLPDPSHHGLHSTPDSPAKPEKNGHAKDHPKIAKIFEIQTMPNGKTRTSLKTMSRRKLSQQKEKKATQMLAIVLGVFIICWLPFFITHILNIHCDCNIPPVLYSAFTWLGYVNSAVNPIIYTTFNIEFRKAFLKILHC
#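 PathHunter D2 cells, attached overnight at 37 deg C, received compound in DMSO plus dopamine at EC20 (50 nM final) for 90 min at 37 deg C. Beta-arrestin recruitment was read as luminescence after 1 h with detection reagent at ambient temperature.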
# gsp antagonist: antagonizes gsp, the McCune-Albright syndrome mutation; actives 0.4% (n = 340,000); AID 624288; gsp-mutant cells, cAMP HTRF, 30 min; control for the full effect not named in the record; Potency, µM (top dose mostly 76.9 µM), for the others: at the top dose activity change, negative = inhibition, usual class: inhibitors; active = falling curve of any shape with a large fitted effect; inconclusive = falling curve, mostly with a smaller effect; inactive = flat or rising curve; cell line not stated here;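 note: intracellular cAMP measured with PDE inhibitor Ro 20-1724 present during compound exposure; potency is the fitted concentration of half-maximal effect; % is set by controls: 0 for no effect and ±100 for the full control effect; nearly all actives have a fitted effect of over 65% in size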
#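 HTRF cAMP read-out (cAMP-d2 plus anti-cAMP antibody-K in lysis buffer, 30 min RT). Before lysis, cells are exposed to compounds with […] for 30 min at 37C in DPBS containing Ca/Mg, BSA and Tween 20.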
# Menin MLL FP FL: displaces fluorescein MLL peptide from human menin; 290,000 tested, under 10 active; FP activity change, % at 61.4 µM; Fluorescence polarization, fluorescein-MLL peptide displacement from menin; AID 1766; inconclusive = falling polarisation curve, or a change in total fluorescence; inactive = total fluorescence flat and polarisation flat or rising; no compound was filed as active; the % refers to the polarisation; negative = inhibition;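 note: % of control where 0% means no effect; inhibitors lower the polarisation; unlabelled MLL peptide was the positive control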
# TRPV1 potentiator: human TRPV1 potentiation. Q8NER1. TRPV1-expressing cells, Fluo-8 calcium influx, capsaicin EC20 potentiation; host cell line not named in the record; control for the full effect not named in the record. potentiation, % at 8.33 µM. actives 0.02% (n = 320,000). AID 540277; active means potentiation above 80%; inconclusive means 30% to 80%; inactive means below 30%; note: 0% is about no effect
#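 TRPV1-expressing cells were cultured overnight at 35.5C and loaded with Fluo-8 calcium dye for 40 to 90 min at room temperature. After a 10 s baseline, compound was added and calcium influx was read kinetically for 3 min (ex 480/em 520 nm).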
# ClpP mod: qHTS Assay for Activators of ClpP. actives 1.9% (n = 340,000). Potency, µM (highest dose often 57.5 µM), for inactives: at the highest dose activity change, negative = active. ATP-dependent Clp protease proteolytic subunit (Bacillus subtilis (strain 168)), P80244. purified B. subtilis ClpP, FRET peptide cleavage, 20 min. AID 651965, 2013; active = well fitted falling curve with a large enough effect; inconclusive = small, poorly fitted or top-dose-only effect; inactive = no such curve, though single readings can be large or run the other way; note: potency is the fitted concentration of half-maximal effect; the source files actives as falling curves though it sought activators and does not explain the sign; nearly all actives have a fitted effect of over 65% in size; many hits overshoot -100%
# Target sequence (P80244 whole entry, looked up): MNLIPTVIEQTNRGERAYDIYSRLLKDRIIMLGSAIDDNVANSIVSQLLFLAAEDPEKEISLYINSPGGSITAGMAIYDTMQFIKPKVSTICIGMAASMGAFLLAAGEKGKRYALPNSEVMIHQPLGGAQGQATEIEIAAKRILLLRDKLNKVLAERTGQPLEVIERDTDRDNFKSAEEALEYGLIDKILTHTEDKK
#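 FRET quenching reversal measured ClpP activation: 10 microg/mL B. subtilis ClpP at pH 8 with the FRET-FV decapeptide, read at 430 nm after 320 nm excitation. The 20-min minus 0-min signal was scaled between DMSO/no-enzyme wells and ADEP (5.8 microM final).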
# Sfp inh: inhibitors of Bacillus subtilis Sfp phosphopantetheinyl transferase. Q9F4F7. actives 3.5% (n = 310,000). Biochemical Sfp PPTase activity, qHTS. Potency, µM, for the others: max response, negative = inhibition, usual class: inhibitors; active = well fitted inhibition curve with a large enough effect; inconclusive = small, poorly fitted or top-dose-only effect, or another doubt; inactive = no such curve, though single readings can be large or run the other way;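 note: the enzyme is Sfp with the accession as filed and its product quenches rhodamine fluorescence; potency is the fitted concentration of half-maximal effect; 0% = enzyme reaction without inhibitor and -100% = no enzyme wells; top concentration of the series not given in the record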
#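 After 15 min at room temperature with compound, 15 nM Sfp received 5 uM rhodamine-CoA plus 12.5 uM BHQ-2-ybbR (50 mM Hepes pH 7.6, 10 mM MgCl2). Rate came from the fluorescence difference over 30 min, ex 525/em 598 nm.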
# gsp agonist: activates gsp, the McCune-Albright syndrome mutation | gsp mutant cells, cAMP HTRF, 30 min; control for the full effect not named in the record | Potency, µM (top dose mostly 76.9 µM), inactives show at the top dose activation (cAMP increase), most hits filed as activators | actives 0.13% (n = 340,000) | AID 624287; active = well fitted activation curve with a large enough effect; inconclusive = small, poorly fitted or top-dose-only effect, or another doubt; inactive = no such curve, though single readings can be large or run the other way; cell line not stated here;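 note: phosphodiesterase inhibitor Ro 20-1724 added with compounds to block cAMP breakdown; potency is the fitted concentration of half-maximal effect; nearly all actives have a fitted effect of over 60% in size; about a fifth of the inactives were tested at one dose only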
#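 Cells in DMEM/10% FBS with G418 were pretreated with compounds in DMSO plus […] (300 uM stock) for 30 min at 37C. cAMP was measured by HTRF (cAMP-d2 plus anti-cAMP antibody-K) after 30 min at room temperature.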
# Starred values were filed as active, the others as inactive; ? = inconclusive; · = no result given; & = joins results of further samples; [ ] = remark or other dose.
# Under each structure – D2 PAM	gsp antagonist	Menin MLL FP FL	TRPV1 potentiator	ClpP mod	Sfp inh	gsp agonist
> O=C1c2ccccc2C(Nc2ccc3c(c2)OCCO3)N1Cc1ccc2c(c1)OCO2 (stereo not given)
  -3	-24%	0.8	19	-2.4%	-2%	-6%
> CCCC(=O)Nc1cc(-c2nc3ncccc3o2)ccc1C
  -3	7%	0.1	21	3.2µM*	15%	-4%
> Cc1cccc(NC(=O)CSCC(=O)Nc2ccc(N3CCOCC3)cc2N2CCOCC2)c1
  6	-11%	·	·	-0.8%	·	4%
> CC(=O)c1cnc(Nc2ccccc2)s1
  -4	7%	-0.2	3	-11%	7%	1%
> COc1ccc(-n2c(=S)[nH]c3ccccc3c2=S)cc1
  -9	2%	-0.9	21	-3.2%	12%	-9%
> COc1ccccc1-c1cn[nH]c1-c1ccc(OCC(=O)NN)cc1O
  -1	-6%	-0.9	26	?	3%	3%
> CCOc1ccccc1N1CCN(C(=O)C2CSC3(C)CCC(=O)N23)CC1 (stereo not given)
  -28	10%	·	9	-3.7%	·	-29%
> COc1cc(CN(C)Cc2cc(=O)n3ccsc3n2)ccc1OC(F)F
  5	4%	0.5	-1	·	12%	20%[15.4 µM]
> CCOc1cc(/C=C/c2nc3ccccc3c(=O)[nH]2)ccc1O
  12	0%	0.1	1	-8.2%	?	0%
> CCOc1ccccc1C(=O)OCC(=O)NCc1ccc2c(c1)OCO2
  -5	-13%	·	·	-5.3%	·	1%
> C=CCOC(=O)C1=C(C)N(C)C(=O)NC1c1cc2c(cc1Br)OCO2 (stereo not given)
  14	0%	0.9	2	-3.3%	-9%	-49%[inhibitor]
> COc1ccccc1NC(=O)CSc1nnc(C)s1
  -4	7%	-1.0	-4	·	18%	9%
> C#CCn1c(=NC(=O)c2ccc(S(=O)(=O)N3CCCc4ccccc43)cc2)sc2cc(S(N)(=O)=O)ccc21
  -23	-9%	8.9	1	-9.0%	8%	1%[15.4 µM]
> Nc1c(Cl)cc(S(N)(=O)=O)cc1S(N)(=O)=O
  9	8%	-0.6	29	1.6%	10%	?
> Cc1nc2nc(SCC(=O)N3CCOCC3)nn2c(C)c1Cc1c(F)cccc1Cl
  13	-16%	3.4	-17	-13%	?	-2%
> O=C(NC12CC3CC(CC(C3)C1)C2)C1CC(=O)N(c2ccccc2)C1 (stereo not given)
  -3	-5%	3.0	-2	1.1%	17%	-53%[inhibitor]
> CC(C)(C)C(=O)CNS(=O)(=O)c1ccc(S(=O)(=O)NC2CC2)cc1
  -3	4%	-3.1	1	3.4%	11%	2%
> CC1CCC(Nc2nnnn2-c2ccccc2)CC1 (stereo not given)
  -23	-3%	0.0	0	-0.4%	10%	-30%[inhibitor]
> CCN(C(=O)COC(=O)c1cccs1)c1c(N)n(Cc2ccccc2)c(=O)[nH]c1=O
  -5	6%	·	-1	-21%	·	-2%[15.4 µM]
> COc1cc(/C=C2\NC(=O)NC2=O)cc(Br)c1OC
  -8	-25%	3.1	?	-3.8%	-8%	30%[15.4 µM]
> COc1ccccc1C(=O)NCCC(=O)N(Cc1ccco1)Cc1cccs1
  -32	-2%	·	-8	-3.6%	-6%	5%[15.4 µM]
> O=C1CCC(=O)O1
  -2	3%	·	-9	0.7%	·	·
> COC(=O)c1ccccc1NC(=S)NC(=O)c1ccc2ccccc2c1
  -21	-3%	6.0	-4	-9.4%	?	-23%
> COc1nc(-c2ccccc2)ccc1-c1noc(-c2cccnc2)n1
  -7	12%	3.7	11	-21%	2%	32%
> CCCCn1c(N)c(N(CCOC)C(=O)C2CCN(S(=O)(=O)c3ccc(C)c(C)c3)CC2)c(=O)[nH]c1=O
  9	5%	·	3	-3.4%	·	8%[15.4 µM]
> CC1CCN(CCCNS(=O)(=O)c2ccc3c(c2)CCN3C(=O)C2CC2)CC1
  -16	11%	·	3	1.2%	9%	-16%
> O=C(Nc1ccccc1C(=O)NCCCn1ccnc1)c1ccccc1
  2	8%	2.1	0	-0.1%	6%	2%
> COc1ccccc1CNC(=O)c1cc2ccccc2o1
  -4	-11%	2.1	-8	·	5%	2%
> Cc1ccc(/C=N/Nc2nnc(Cl)c3ccccc23)cc1
  -11	-19%	2.8	2	·	-26%	-48%
> CCOC(=O)c1ccc(N2Cc3ccccc3C2=NC(=O)c2cccs2)cc1
  -4	-20%	1.1	-15	?	11%	6%
> COc1ccc(N2CCN(c3oc(-c4ccc(OC)c(OC)c4)nc3C#N)CC2)cc1
  5	5%	-0.5	?	-8.5%	?	-17%
> Cc1csc(Nc2nc(N)c(C(=O)Nc3ccccc3)o2)n1
  -7	-10%	-4.7	19	0.1%	1%	-20%
> CCC(=O)c1cn(CC(=O)Nc2ccc(OC)cc2)c2ccccc12
  1	1%	-5.3	12	-1.2%	3%	-57%[inhibitor]
> CCOC(=O)c1c(C)nc(-c2ccccc2)nc1N
  9	11%	5.4	6	-3.3%	4%	?
> CCCC[C@H]1COCCS(=O)(=O)N1Cc1ccc(Br)cc1
  -11	-15%	0.3	-27	-0.6%&-0.6%	0%	-4%
> Cn1cc(S(=O)(=O)Nc2cccc(F)c2)c(=O)n(C)c1=O
  -3	3%	-6.3	-1	0.2%	-7%	-58%[inhibitor]
> CCCCSc1nc2sc3c(c2c(=O)[nH]1)CC(C)(CC)OC3 (stereo not given)
  -4	-4%	-1.5	-6	-2.9%	14%	3%[15.4 µM]
> C(=N\N1CCOCC1)/c1nc(-c2ccccc2)n2ccccc12
  -2	-27%	6.6	1	·	-21%	-5%[15.4 µM]
> C/C(CCC1CC(C)OC1=O)=N/Nc1nc(-c2ccccc2)cs1 (stereo not given)
  -9	4%	2.7	23	-0.7%	50µM*	0%[15.4 µM]
> O=C(Nc1cccc(NC(=O)c2cccs2)c1)c1ccc2c(c1)OCCO2
  0	-16%	-0.5	10	0.2%	6%	-52%[inhibitor]
> CC(C)(C)c1ccc(C2=CSC3=NCCN23)cc1
  -2	5%	1.2	?	·	19%	-42%[inhibitor]
> Cc1nn(-c2ccccc2)c(N2CCCC2)c1/C=N/n1cnc2scc(-c3ccccc3)c2c1=O
  -6	-7%	1.5	12	226%&-2.6%	6%	14%
> CCc1noc(C)c1C(=O)Nc1cc(S(=O)(=O)N2CCOCC2)ccc1OC(C)C
  -18	-8%	·	-35	-0.9%	·	32%[15.4 µM]
> CCOc1ccc(CN(C)C(=O)Cc2c[nH]c3ccccc23)cc1
  -14	1%	-1.3	16	-1.6%	2%	-66%[inhibitor]
> COc1ccccc1C1Nc2ccccc2NC2=C1C(=O)CC(C)(C)C2 (stereo not given)
  -10	9%	-1.1	6	-0.1%	11%	-16%[15.4 µM]
> CC(C)NC(=O)CSc1nnc(-c2ccc(S(=O)(=O)N3CCCC3)cc2)n1CC1CCCO1 (stereo not given)
  -10	-3%	4.5	9	-6.4%	13%	-46%[inhibitor]
> COc1ccccc1CNc1ccc(N2CCCCC2)cc1
  12	4%	0.8	-17	2.3%	18µM*	?
> CCOc1cc(NC(=O)c2ccco2)c(OCC)cc1NC(=O)Cc1ccc(OC)c(OC)c1
  -2	-1%	-0.4	7	137%	19%	-3%
> O=C(Cn1c(=O)n(CC(=O)N2CCCCC2)c(=O)c2sccc21)NCc1ccccc1
  22	-2%	·	-11	0.7%	18%	?
> CCOC(=O)CSc1nc(COc2ccccc2)nc2ccccc12
  -1	12%	6.4	4	·	0%	?
> CSC1=N/C(=C\c2ccc(F)cc2)C(=O)S1
  7	-2%	4.3	24	1.4%	-20%	5%
> O=C(NCc1cccs1)C1CCCN1C(=O)Nc1cccc(Cl)c1 (stereo not given)
  -11	4%	1.0	3	·	15%	12%[15.4 µM]
> Cc1cc(N2CCCC2=O)cc(C)c1S(N)(=O)=O
  -18	8%	-0.6	-1	1.0%	14%	15%
> O=C(O)CCC(=O)Nc1ccc(Br)c(Cl)c1
  -6	6%	-0.9	-4	-1.3%	19%	5%
> CCN(CC(=O)Nc1c(F)cccc1F)C(=O)c1cccnc1SC
  -10	6%	·	-3	0.8%	1%	11%[15.4 µM]
> CSc1ccccc1C(=O)Nc1ccccc1C
  -12	-2%	-2.2	9	·	6%	13%[15.4 µM]
> CCOc1cc(/C=C/C(=O)OCC(=O)NCCN2C(=O)CSC2=O)ccc1OCC(C)C
  12	-14%	·	-2	-24%	·	12%
> Clc1cccc(OCCOCCN2CCNCC2)c1Cl
  -15	15%	·	·	-1.1%	·	-12%[15.4 µM]
> O=C(N/N=C/c1ccc(Cl)cc1)c1n[nH]c2c1CCCC2
  -7	1%	1.0	-16	·	2%	12%[15.4 µM]
> Cc1noc(C)c1S(=O)(=O)N1CCCC(C(=O)N2CCC(C)CC2)C1 (stereo not given)
  11	7%	3.2	-10	-0.4%	22%	2%

# 3 entries already listed, arranged by their value in D2 PAM, descending:
Structure,D2 PAM,gsp antagonist,Menin MLL FP FL,Sfp inh,gsp agonist
CC(C)(C)c1ccc(C2=CSC3=NCCN23)cc1,-2,5%,1.2,19%,-42%[inhibitor]
CC(C)NC(=O)CSc1nnc(-c2ccc(S(=O)(=O)N3CCCC3)cc2)n1CC1CCCO1 (stereo not given),-10,-3%,4.5,13%,-46%[inhibitor]
CCc1noc(C)c1C(=O)Nc1cc(S(=O)(=O)N2CCOCC2)ccc1OC(C)C,-18,-8%,·,·,32%[15.4 µM]

# Other compounds:
# Under each structure – D2 PAM	gsp antagonist	Menin MLL FP FL	TRPV1 potentiator	ClpP mod	Sfp inh	gsp agonist
> CN(Cc1ccccc1)C(=O)CCn1c(=O)oc2ccccc21
  -2	10%	1.4	0	0.0%	7%	-16%
> CCN(CC)c1ccc(N2C(=NC(=O)C3CC3)SC3CS(=O)(=O)CC32)cc1 (stereo not given)
  -4	-7%	-2.8	9	-2.6%	-11%	-13%
> Cc1sc(NC(=O)C2CC=CCC2C(=O)O)c(C(=O)OC(C)C)c1C (stereo not given)
  -18	?	12	-2	-2.5%	14%	?
> O=C(CN1C(=O)C(=O)c2ccccc21)OCN1C(=O)c2ccccc2C1=O
  -6	8%	-5.7	-3	·	24%	-1%[15.4 µM]
